Assay outcomes deposited in PubChem by National Center for Advancing Translational Sciences (NCATS).
TRPV1 PAM: enhances activation of the human vanilloid receptor TRPV1; Q8NER1; TRPV1-expressing cells, Fluo-8 calcium influx, capsaicin EC20 potentiation; host cell line not named in the record; control for the full effect not named in the record; potentiation, % at 8.33 µM; 320,000 compounds, 0.02% hits; AID 540277; active means potentiation above 80%; inconclusive means 30% to 80%; inactive means below 30%; further: 0% is about no effect
Target sequence (Q8NER1 whole entry, looked up): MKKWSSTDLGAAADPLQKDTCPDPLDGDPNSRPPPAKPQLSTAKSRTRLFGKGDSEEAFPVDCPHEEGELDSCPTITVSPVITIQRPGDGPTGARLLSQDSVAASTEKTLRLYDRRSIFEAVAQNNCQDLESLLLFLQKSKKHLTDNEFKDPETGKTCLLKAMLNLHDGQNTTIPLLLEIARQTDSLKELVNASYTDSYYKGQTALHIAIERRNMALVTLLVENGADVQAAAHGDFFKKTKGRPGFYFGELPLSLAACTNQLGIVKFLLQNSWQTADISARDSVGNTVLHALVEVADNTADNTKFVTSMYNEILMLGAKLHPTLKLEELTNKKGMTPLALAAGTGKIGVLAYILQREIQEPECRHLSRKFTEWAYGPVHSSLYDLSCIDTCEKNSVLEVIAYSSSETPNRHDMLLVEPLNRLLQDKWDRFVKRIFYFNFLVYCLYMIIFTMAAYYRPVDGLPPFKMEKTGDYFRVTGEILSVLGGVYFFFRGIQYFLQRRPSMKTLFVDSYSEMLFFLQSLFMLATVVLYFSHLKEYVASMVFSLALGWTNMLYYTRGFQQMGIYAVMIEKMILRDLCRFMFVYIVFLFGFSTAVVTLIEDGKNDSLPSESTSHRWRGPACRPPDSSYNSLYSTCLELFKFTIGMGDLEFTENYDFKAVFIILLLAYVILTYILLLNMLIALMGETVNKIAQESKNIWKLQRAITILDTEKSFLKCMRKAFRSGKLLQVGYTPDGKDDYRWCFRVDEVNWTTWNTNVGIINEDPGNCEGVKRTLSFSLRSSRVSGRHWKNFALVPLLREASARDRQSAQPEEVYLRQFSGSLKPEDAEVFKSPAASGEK
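Fluo-8 calcium influx in TRPV1-expressing cells, kinetic read (ex 480/em 520 nm). Compound added and read 3 min for agonist activity, followed by capsaicin at EC20 final and 2 min further read for enhancement.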
PINK1 expr mod: modulators of PINK1 expression; PINK1 immunofluorescence, high-content cytometry, 24 h; Potency, µM (doses to about 76.6 µM), for inactives: at the top dose activation (PINK1 increase), actives largely listed as activators; 410,000 compounds, 0.2% hits; AID 624263; active = well fitted activation curve with a large enough effect; inconclusive = small, poorly fitted or top-dose-only effect; inactive = flat fitted curve, though single readings scatter; cell line not stated here;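 further: potency means the concentration at half of the fitted maximal effect; % of control where 0% means no effect; nearly all actives have a fitted effect of over 65% in size; a mitochondrial uncoupler was the plate control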
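PINK1 protein, normally rapidly degraded, was detected by immunofluorescence after 24 hour compound treatment of a stable cell line. Titration data (5 concentrations) came from laser-scanning cytometry, with CCCP-treated wells as controls.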
ClpP mod: qHTS Assay for Activators of ClpP. ATP-dependent Clp protease proteolytic subunit (Bacillus subtilis (strain 168)), P80244. purified B. subtilis ClpP, FRET peptide cleavage, 20 min. Potency, µM (titrated, usually from 57.5 µM), for inactives: top-dose activity change, negative = active. 340,000 compounds, 1.9% hits. AID 651965, 2013; active = well fitted falling curve with a large enough effect; inconclusive = small, poorly fitted or top-dose-only effect; inactive = no such curve, though single readings can be large or run the other way; further: potency means the concentration at half of the fitted maximal effect; the source files actives as falling curves though it sought activators and does not explain the sign; nearly all actives have a fitted effect of over 65% in size; many hits overshoot -100%
Target sequence (P80244 whole entry, looked up): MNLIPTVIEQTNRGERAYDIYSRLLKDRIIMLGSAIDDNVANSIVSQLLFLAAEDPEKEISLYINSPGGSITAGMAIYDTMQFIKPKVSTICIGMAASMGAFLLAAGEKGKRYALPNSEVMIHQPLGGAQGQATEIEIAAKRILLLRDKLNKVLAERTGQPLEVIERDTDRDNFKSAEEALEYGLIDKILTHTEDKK
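Purified B. subtilis ClpP, 10 microg/mL final in Tris/HCl pH8 with KCl, BSA, glycerol and Tween-20, cleaved an Abz/nitrotyrosine-quenched decapeptide. Fluorescence (ex 320, em 430) was read at 0 and 20 min at room temperature. Delta was normalized to 5.8 microM ADEP and DMSO/no-enzyme controls.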
Menin MLL FP FL: inhibitors of human menin-MLL interaction, wild-type MLL peptide; Fluorescence polarization, fluorescein-MLL peptide displacement from menin; 290,000 tested, under 10 active; FP activity change, % at 61.4 µM; AID 1766; inconclusive = falling polarisation curve, or a change in total fluorescence; inactive = total fluorescence flat and polarisation flat or rising; no compound was filed as active; the % refers to the polarisation; negative = inhibition;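 further: % of control where 0% means no effect; inhibitors lower the polarisation; unlabelled MLL peptide was the positive control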
Sfp inh: blocks B. subtilis Sfp PPTase activity. Q9F4F7. Biochemical Sfp PPTase activity, qHTS. Potency, µM, without a hit: max response, negative = inhibition, most hits filed as inhibitors. 310,000 compounds, 3.5% hits. AID 1490; active means well fitted inhibition curve with a large enough effect; inconclusive means small, poorly fitted or top-dose-only effect, or another doubt; inactive means no such curve, though single readings can be large or run the other way;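 further: the enzyme is Sfp with the accession as filed and its product quenches rhodamine fluorescence; potency means the concentration at half of the fitted maximal effect; 0% = enzyme reaction without inhibitor and -100% = no enzyme wells; top concentration of the series not given in the record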
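Fluorescence-quenching assay with 15 nM Sfp, 5 uM rhodamine-CoA and 12.5 uM BHQ-2-labelled ybbR peptide in pH 7.6 Hepes/MgCl2 buffer. Enzyme was pre-incubated with compound for 15 min at room temperature. Rate was taken from the 30-min fluorescence change (525/598 nm).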
TRPML1 agonist: activates the human TRPML1 channel; TRPML1-expressing cells, Ca2+ dye fluorescence, FDSS; host cell line not named in the record; reference of the full effect not given here; Q9GZU1; activation, % (test concentration not listed); AID 624414; 410,000 compounds, 0.12% hits; in the data active = activation above about 50%; inconclusive = about 30% to 50%; inactive = below about 30%; further: 0% is about no effect; the text of the record puts the active cut at 80%
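Calcium fluorescence on an FDSS kinetic reader gave the read-out. Tet-induced TRPML1-DL cells were plated overnight, dye-loaded (Ca8 with quencher, 45-90 min, room temperature, dark), then read 110 s after compound addition, and again 110 s after 4uM final 54-4 (EC80).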
TRPML1 inh: blocks the human TRPML1 channel | TRPML1-inducible cells, Ca2+ dye fluorescence, FDSS; hits give low values; inhibition of EC80 agonist-evoked calcium signal | activity change, negative = inhibition, % (test concentration not listed) | 390,000 compounds, 0.02% hits | AID 624415; in the data active means activity change below about -50%; inconclusive means about -30% to -50%; inactive means above about -30%;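 further: stimulus is agonist 54-4 at its EC80 concentration; on the % scale 0 is the no-effect control and ±100 the full control effect; compound concentration not given in the record; the text of the record puts the active cut at -80%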
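TRPML1-DL cells, Tet-induced overnight (~16 h, 37 °C) at 1,500 cells/well, were loaded with Ca8 no-wash dye plus quencher for 45-90 min at room temperature. Compounds were pinned during FDSS kinetic reading; agonist 54-4 at EC80 (4 uM final) then added.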
* = called active by the depositor; & = joins results of further samples; [ ] = another dose, or the depositor's remark.

For Oc1ccccc1C1CC(c2cccs2)=NC(c2ccc(Cl)cc2)N1 (configuration not stated) the results were TRPV1 PAM -6.3, PINK1 expr mod -1.3%, ClpP mod -7.4%, Menin MLL FP FL 6.7, Sfp inh -15.7%, TRPML1 agonist 0.1 and TRPML1 inh 8.0.
Screening Cc1cc(C=O)c(C)n1-c1ccc(NC2CCCC2)c([N+](=O)[O-])c1 returned TRPV1 PAM -5.5, PINK1 expr mod 1.2%, Menin MLL FP FL 14.3, Sfp inh -8.6%, TRPML1 agonist -1.1 and TRPML1 inh 52.8.
Screening O=C(NCc1ccc(F)cc1)c1cc(C2CCCN(S(=O)(=O)c3ccccc3)C2)on1 (configuration not stated) returned PINK1 expr mod 1.4%, ClpP mod -5.3% and TRPML1 agonist -0.5.
`CCC(C)c1ccc(S(=O)(=O)N2CCN(CC(O)COCC3CCCO3)CC2)cc1` (configuration not stated) gave TRPV1 PAM -6.1, PINK1 expr mod -0.8%, ClpP mod 1.0%, TRPML1 agonist 1.3 and TRPML1 inh 24.8.
For COc1ccc(C)cc1NS(=O)(=O)c1cccc2nonc12 the results were TRPV1 PAM 7.0, PINK1 expr mod 1.8%, ClpP mod 1.6%, Menin MLL FP FL 2.0, Sfp inh -0.2%, TRPML1 agonist 0.3 and TRPML1 inh 2.0.
For CCCCN(CCCC)CCCNC(=O)C1CC(c2cc(C(F)(F)F)cc(C(F)(F)F)c2)=NO1 (configuration not stated) the results were PINK1 expr mod 0.2%, ClpP mod 0.1%, TRPML1 agonist 0.2 and TRPML1 inh 8.6.
`Cc1cc(C)n2nc(SCC(=O)NCc3ccco3)nc2n1` gave TRPV1 PAM 21.9, PINK1 expr mod -0.9%[38.3 µM], ClpP mod -1.7%, Menin MLL FP FL 0.6, Sfp inh -17.7%, TRPML1 agonist 0.3 and TRPML1 inh 7.7.
`Cc1nccn1CC(=O)c1ccc(O)c(O)c1` gave TRPV1 PAM -3.0, PINK1 expr mod 0.2%, ClpP mod -1.8%, TRPML1 agonist 0.1 and TRPML1 inh 5.8.
For COC(=O)c1ccc(CSc2nc(C(F)F)cc(C)c2C#N)o1 the results were PINK1 expr mod 2.0%, ClpP mod -1.3%, TRPML1 agonist -0.5 and TRPML1 inh 20.7.
`CC(C)CCn1cnc2c([nH]c3cccc(Cl)c32)c1=O` gave PINK1 expr mod 10.0%, ClpP mod inconclusive, Menin MLL FP FL 5.0, Sfp inh 13.6%, TRPML1 agonist 0.3 and TRPML1 inh -8.5.
`CC(C)C[C@H]1CN=C(Nc2ccccc2)N1CC(C)C` gave TRPV1 PAM 22.7, PINK1 expr mod -0.6%, ClpP mod -0.5%, TRPML1 agonist 0.2 and TRPML1 inh 6.1.
Cc1ccc(NS(=O)(=O)c2c(C(=O)N3CCOCC3)c(C)n(C)c2C)cc1C was read as TRPV1 PAM 4.3, PINK1 expr mod -1.7%, ClpP mod -2.8%, Menin MLL FP FL 1.7, Sfp inh 21.2%, TRPML1 agonist -0.5 and TRPML1 inh 8.9.
`CCCN(CCC)CCc1cccc2c1CC(=O)N2` gave PINK1 expr mod -0.6%, Menin MLL FP FL -5.4&3.6 and Sfp inh 14.7%.
O=C(CSc1nccn1-c1ccccc1)NCc1ccc(F)cc1 was read as TRPV1 PAM -6.7, PINK1 expr mod 0.0%, ClpP mod 0.9%, Menin MLL FP FL 2.1, Sfp inh 10.3%, TRPML1 agonist -0.4 and TRPML1 inh 6.4.
`CC(=O)c1ccccc1NC(=O)CN1C(=O)NC2(CCCCCCC2)C1=O` gave PINK1 expr mod 0.3%, TRPML1 agonist -0.2 and TRPML1 inh 4.1.
`CC(C)c1ccc(NS(=O)(=O)c2ccc3c(c2)oc(=O)n3C)cc1` gave TRPV1 PAM -3.1, PINK1 expr mod 1.3%, ClpP mod 0.4%, Menin MLL FP FL 3.3, Sfp inh 4.8%, TRPML1 agonist 0.4 and TRPML1 inh 7.8.
Screening CCOc1ccc(S(=O)(=O)n2ccc(C)n2)cc1 returned TRPV1 PAM -8.1, PINK1 expr mod 1.9%, Menin MLL FP FL -1.5, Sfp inh 35.3%, TRPML1 agonist -0.5 and TRPML1 inh 1.5.
CCOC(=O)CNc1nc(C(C)(C)C)nc2c1nnn2Cc1ccccc1Cl was read as TRPV1 PAM 7.8, PINK1 expr mod 1.0%[38.3 µM], ClpP mod -13.9%, Menin MLL FP FL -0.9, Sfp inh 23.6%, TRPML1 agonist 1.9 and TRPML1 inh 18.2.
CC(=O)c1c(C)[nH]c(C(=O)CN(C)CC(=O)Nc2ccccc2Cl)c1C was read as PINK1 expr mod 0.1%, TRPML1 agonist 0.5 and TRPML1 inh -13.4.
For CCc1ccc([C@H]2C(C(=O)O)=C[C@@H](C(C)(C)C)N2S(=O)(=O)c2ccc(C)cc2)cc1 the results were PINK1 expr mod -1.4%, ClpP mod 0.2%, TRPML1 agonist 0.1 and TRPML1 inh -0.6.
Cc1ccc(S(=O)(=O)NCC(=O)N2CCN(c3ccccc3F)CC2)cc1 was read as TRPV1 PAM 21.2, PINK1 expr mod -1.5%, ClpP mod -2.2%, Menin MLL FP FL -1.0, Sfp inh -10.1%, TRPML1 agonist 1.1 and TRPML1 inh -5.4.
For CC[C@H](C)[C@H](NC(=O)c1ccccc1)C(=O)NC(CC(=O)O)c1ccc(F)cc1 (some centres not stated) the results were TRPV1 PAM -4.6, PINK1 expr mod -0.1%, ClpP mod -0.7%, Menin MLL FP FL -0.8, Sfp inh 4.4%, TRPML1 agonist 0.7 and TRPML1 inh 18.3.
O=C(NCc1ccc(F)cc1)C(c1cccs1)N(C(=O)c1csnn1)C1CC1 (configuration not stated) was read as TRPV1 PAM -26.0, PINK1 expr mod -2.1%, ClpP mod -1.5%, Menin MLL FP FL -1.1, Sfp inh 11.0%, TRPML1 agonist 0.9 and TRPML1 inh 1.1.
For COc1cccc(OC)c1C(=O)NC(=S)Nc1ccc2c(c1)OCCO2 the results were TRPV1 PAM 0.1, PINK1 expr mod 0.4%, Menin MLL FP FL -1.1, Sfp inh 5.7%, TRPML1 agonist 2.2 and TRPML1 inh -2.2.
`Cc1ccc(NC(=O)CN2C(=O)NC(C)(CCc3ccccc3)C2=O)cc1` (configuration not stated) gave TRPV1 PAM -5.9, PINK1 expr mod 3.4%, Menin MLL FP FL 3.1, Sfp inh 5.8%, TRPML1 agonist 0.0 and TRPML1 inh 5.3.
Screening O=C(Nc1cccc(-c2ccc(N3CCOCC3)nn2)c1)c1ccccc1Cl returned TRPV1 PAM 23.5, PINK1 expr mod 7.4%, ClpP mod -3.0%, TRPML1 agonist -1.0 and TRPML1 inh -6.6.
For O=C(Nc1ccccc1C(=O)N1CCCCC1)NC1CCCCC1 the results were TRPV1 PAM 7.8, PINK1 expr mod 1.0%, Menin MLL FP FL 2.6, Sfp inh -6.0%, TRPML1 agonist 0.2 and TRPML1 inh -7.1.
For C[C@H](CO)N1C[C@H](C)[C@@H](CN(C)Cc2ccccc2)Oc2c(NS(=O)(=O)c3cn(C)cn3)cccc2C1=O the results were PINK1 expr mod 2.6%, ClpP mod inconclusive, TRPML1 agonist -0.1 and TRPML1 inh -6.3.
For CN(/N=C/c1ccc(Cl)cc1)c1ncc(Cl)cc1C(F)(F)F the results were TRPV1 PAM 1.1, PINK1 expr mod 15.0%, Menin MLL FP FL 4.7, Sfp inh -2.5%, TRPML1 agonist 1.1 and TRPML1 inh -1.6.
COc1ccc(Cn2cccc(NC(=O)Nc3ccc(C#N)cc3)c2=O)cc1 was read as TRPV1 PAM -2.1, PINK1 expr mod 9.8%, ClpP mod 12.6µM*, Menin MLL FP FL 5.8, Sfp inh 1.6%, TRPML1 agonist 0.9 and TRPML1 inh 25.0.
For Cc1ccc(/C=C/c2nc3ccccc3[nH]2)o1 the results were TRPV1 PAM -21.4, PINK1 expr mod -1.0%, Menin MLL FP FL inconclusive, Sfp inh 5.01µM*, TRPML1 agonist 0.9 and TRPML1 inh 14.5.
`COc1ccc(S(=O)(=O)Nc2cccnc2)c(Cl)c1Cl` gave TRPV1 PAM -1.6, PINK1 expr mod -0.2%, Menin MLL FP FL -1.1, Sfp inh 25.4%, TRPML1 agonist -1.3 and TRPML1 inh 27.5.
CC1CC(C)CN(S(=O)(=O)N2CCC(C(=O)NCCc3ccccc3)CC2)C1 (configuration not stated) was read as TRPV1 PAM -3.8, PINK1 expr mod 7.4%, ClpP mod 0.2%, Menin MLL FP FL inconclusive, Sfp inh 22.4%, TRPML1 agonist 0.5 and TRPML1 inh 44.7.
For COc1cccc(NC(=S)N(CCCN2CCOCC2)Cc2cn(C)c3ccccc23)c1 the results were TRPV1 PAM -9.1, PINK1 expr mod -1.8%, ClpP mod 0.1%, Menin MLL FP FL 1.3, Sfp inh -3.5%, TRPML1 agonist -0.1 and TRPML1 inh 10.0.
`Cc1ccc(NC(=O)CS(=O)CC(=O)Nc2ccccc2-c2ccc(C)o2)cc1` (configuration not stated) gave TRPV1 PAM -0.1, PINK1 expr mod 4.2%, ClpP mod 1.0%, Menin MLL FP FL 8.7, Sfp inh -13.7%, TRPML1 agonist 3.3 and TRPML1 inh 23.5.
Screening CCOCCCn1c(SCC(=O)Nc2ccc(NC(C)=O)cc2)nc2ccccc2c1=O returned TRPV1 PAM 6.3, PINK1 expr mod 2.0%, ClpP mod 0.2%, Menin MLL FP FL 2.4, Sfp inh 3.9%, TRPML1 agonist 0.5 and TRPML1 inh -27.6.
For CC1C(=O)Nc2ccccc2N1C(=O)c1ccc(O)cc1 (configuration not stated) the results were TRPV1 PAM 6.5, PINK1 expr mod -2.7%, ClpP mod -0.5%, Menin MLL FP FL 60.8[activator], Sfp inh -3.0%, TRPML1 agonist 0.8 and TRPML1 inh -11.3.
Screening Cc1ccccc1NC(=O)CNc1ccccc1N1CCCCC1 returned TRPV1 PAM -14.2, PINK1 expr mod 4.5%, ClpP mod -4.6%, Menin MLL FP FL -1.6, Sfp inh 2.5%, TRPML1 agonist 0.1 and TRPML1 inh -16.4.
Cc1ccc(CN2CCSc3ccc(C(=O)N4CCN(c5cc(C)ccc5C)CC4)cc32)cc1 was read as PINK1 expr mod 3.4%, ClpP mod inconclusive, TRPML1 agonist -0.1 and TRPML1 inh -16.6.
